miR-21 reporter: miR-21 reporter, rising signal; HeLa miR-21 FLuc reporter, luciferase, 48 h; Potency, µM (titrated, usually from 38.3 µM), without a hit: at the top dose reporter change, positive = more light; 340,000 tested, under 10 active; AID 2288; active = well fitted rising curve with a large enough effect; inconclusive = small, poorly fitted or top-dose-only effect; inactive = no such curve, though single readings can be large or run the other way;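 also: % of control where 0% means no effect; miR-21 action dims this reporter so a rising signal means less miR-21 action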
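Using DMEM plus 10% FBS, HeLa miR-21-FLuc cells are incubated with test compounds (final up to about 40uM) for 48 hours; firefly luciferase signal is then imaged following reagent-mediated lysis.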
Rango release inh: inhibitors of RanGTP-induced Rango-importin beta complex dissociation. 340,000 tested, 0.071% active. Potency, µM (highest dose often 46.1 µM), without a hit: at the top dose activity change, negative = inhibition. Biochemical FRET Rango-importin beta, RanGTP-induced dissociation; active means falling FRET ratio curve, often poorly fitted, with flat reads before Ran was added; inconclusive means other falling curves, or compound fluorescence or quenching; inactive means flat or rising ratio curve;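 also: potency is read from the fitted curve at half-maximal effect; % of control where 0% means no effect; nearly all actives have a fitted effect of over 45% in size; -100% = wells without RanGTP and RCC1; the record marks most hits as doubtful in a second field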
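Quantitative HTS using a FRET biosensor: 0.1 uM Rango, 0.25 uM importin beta, 0.6 uM Ran, 2 mM GTP, 0.2 uM RCC1 final, PBS with DTT, Tween-20 and BSA. Post-read taken 45 min after Ran addition.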
Rango-impB inh: inhibitors of Rango-importin beta complex formation | Q14974 | Potency, µM (titrated, usually from 92.2 µM), inactives show at the top dose inhibition of complex formation | Rango CFP/YFP FRET sensor + importin beta, 45 min | 340,000 tested, 0.031% active; active = rising FRET ratio curve, often small or poorly fitted; inconclusive = mostly compound fluorescence or quenching in the first reads; inactive = flat curves in all reads;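 also: potency is read from the fitted curve at half-maximal effect; 0% = DMSO wells and 100% = buffer wells lacking importin beta; nearly all actives have a fitted effect of over 15% in size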
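FRET biosensor (snurportin 1 IBB flanked by EYFP and cerulean), 50 nM, with compound 5 min, then 0.125 microM importin beta in PBS, 1 mM DTT, 0.02% Tween-20, 0.1% BSA. CFP/YFP ratio read after 45 min at room temperature; pre-read flags interference.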
GLA inh pH 4.5: inhibitors of human alpha-galactosidase A at pH 4.5 | P06280 | activity change, negative = inhibition, % at 105 µM | 230,000 tested, under 10 active | purified enzyme, 4-MU-alpha-Gal fluorescence, pH 4.5 | AID 1467; inconclusive = small, poorly fitted or top-dose-only inhibition, or a rising curve; inactive = flat fitted curve, though single readings scatter; no compound was filed as active;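 also: 0% = full activity with enzyme and -100% = basal without enzyme; dose as in the result columns while the protocol names 77 µM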
Target sequence (P06280 whole entry, looked up): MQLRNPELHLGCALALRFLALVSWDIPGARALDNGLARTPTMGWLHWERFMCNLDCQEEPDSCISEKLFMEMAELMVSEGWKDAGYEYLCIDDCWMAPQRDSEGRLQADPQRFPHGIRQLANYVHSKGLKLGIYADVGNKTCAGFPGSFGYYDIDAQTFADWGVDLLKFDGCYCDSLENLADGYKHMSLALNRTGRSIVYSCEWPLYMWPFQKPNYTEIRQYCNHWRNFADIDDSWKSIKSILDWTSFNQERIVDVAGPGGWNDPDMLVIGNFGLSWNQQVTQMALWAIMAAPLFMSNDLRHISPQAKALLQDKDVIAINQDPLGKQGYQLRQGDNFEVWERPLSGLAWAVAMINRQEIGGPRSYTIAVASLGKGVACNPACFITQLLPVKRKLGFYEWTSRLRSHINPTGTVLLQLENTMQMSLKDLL
Numbers without * were called inactive; ? = inconclusive; / = not tested or not shown; & = joins results of further samples.

Below each compound: miR-21 reporter, Rango release inh, Rango-impB inh, GLA inh pH 4.5
CCOc1ncccc1C(=O)OCC(=O)c1ccc(Br)s1
    /, -9%, -1.3%, /
Cc1nc2ccccn2c1/C(O)=C1\C(=O)C(=O)N(CCN2CCOCC2)C1c1cccs1 (stereo not given)
    -8%, -12%, ?, -9
COCCNC(=O)/C(C#N)=C/c1ccc(OCC(=O)NC2CCCCC2)cc1
    -3%, -9%, -0.6%, 3
COc1cc(/C=c2\s/c(=C\C(=O)C(C)(C)C)[nH]c2=O)cc(OC)c1OC
    0%, ?, ?, -7
CS(=O)(=O)c1ccccc1-c1nnc(NC(=O)c2cccc(N3C(=O)CCC3=O)c2)o1
    /, -8%, 2.8%, /
COc1ccc(CN2CCN(CCc3ccccc3)C(CCO)C2)cc1Cn1cncn1 (stereo not given)
    -9%, ?, 1.1%, -9
Cc1cc(OCCN2CCOCC2)ccc1[N+](=O)[O-]
    -48%, 11%, -0.2%, 4
N/C(COc1ccc(C(=O)O)cc1)=N\O
    4%, 6%, 4.3%, 4
CCN(Cc1nc2ccccc2c(=O)[nH]1)Cc1cc(=O)oc2cc(C)c(C)cc12
    /, -27%, ?, /
CCCCOc1ccc(C(=O)N(C)CC(=O)Nc2ccc(C)cc2)cc1
    2%, 31%, 0.6%, /
CCN1CCN(C(c2cccs2)C(C)NC(=O)c2cccc(OC)c2OC)CC1 (stereo not given)
    -9%, -1%, -4.4%, -4
O=C(Oc1ccc(-c2ccccc2)cc1)N1CCCCC1
    -36%, -17%, 0.3%, 4
O=C(Cn1ncn2c(cc3sccc32)c1=O)NC1CCCC1
    -5%, 15%, -3.2%, /
Cc1noc(C)c1S(=O)(=O)N(C)CC(=O)NCc1ccccc1
    -1%, 21%, -3.8%, 2
CSCCC(NC(=O)COc1ccccc1)C(=O)OCCOc1ccc(F)cc1 (stereo not given)
    /, -5%, -0.3%, /
O=C(c1ccc([N+](=O)[O-])cc1)N1CCN(C(=O)c2cccnc2)CC1
    0%, -3%, -0.3%, /
CC(C(=O)N1CCc2ccccc21)N(C)CC(=O)Nc1ccc(F)cc1 (stereo not given)
    /, 5%, 0.9%, /
Cc1cccc(Cc2c(C)[nH]c(=O)c(C#N)c2C)c1
    -15%, -6%, -2.7%, 2
O=C(NC1CCN(Cc2ccccc2)CC1)C1CCN(S(=O)(=O)c2cccc3nsnc23)CC1
    -3%, 0%, 7.3%, -16
COC(=O)Cc1c(C)nc2nc(NCc3c(F)cccc3Cl)[nH]n2c1=O
    -2%, 0%, -2.4%, 7
COc1ccc(S(=O)(=O)Nc2cccc3c2O[C@H](CN(C)S(=O)(=O)c2cn(C)cn2)[C@@H](C)CN([C@H](C)CO)C3=O)cc1
    /, 0%, 4.1%, /
COc1ccc(-c2cc(=O)n(-c3ccc([N+](=O)[O-])cc3)[nH]2)cc1
    -20%, -4%, 4.0%, -11
Cc1cccc(C(=O)O/N=C(\N)Cc2ccc([N+](=O)[O-])cc2)c1
    -1%, 1%, -0.2%, 1
Cc1ccc(-c2cc(C#N)c(=O)n(Cc3c(Cl)cccc3Cl)c2)cc1
    -1%, 5%, 0.6%, 15
Cc1c(Cl)cccc1NC(=O)C1CC(=O)N(C2CCCC2)C1 (stereo not given)
    /, 2%, 0.4%, /
N#CC(Cc1ccccc1OC(F)F)c1nc2ccccc2[nH]1 (stereo not given)
    -7%, 9%, 1.3%, 4
COc1cc(/C=C(\C#N)c2nc3ccccc3[nH]2)cc(Br)c1OCc1ccccc1
    18%, ?, ?, -5
Nc1c(Cl)ncnc1NCCc1ccc(O)cc1
    22%, -9%, 1.4%, -1
COc1ccc(S(=O)(=O)N2CCCC2C(=O)Nn2cnnc2)cc1 (stereo not given)
    0%, 3%, -1.5%, -2
N=c1sccn1CC(=O)Nc1cc(S(=O)(=O)N2CCCCC2)ccc1Cl
    -4%, 5%, -0.7%, 1
N#Cc1c(Nc2ccccc2)c(/C=N/N=C/c2ccccc2)c[nH]c1=O
    -7%, -4%, -1.2%, -14
COc1ccc(OCCCc2c(C)n[nH]c2C)cc1
    0%, 3%, 0.7%, -6
C#Cc1ccc([C@H]2C=C(C(=O)NCc3ccccc3)O[C@@H](OCC)[C@@H]2CCCO)cc1
    0%, -18%, 0.5%, 0
NNc1ccc(Cc2ccc(Cl)cc2Cl)nn1
    18%, 3%, 2.3%, 8
CCC(=O)NC(=S)Nc1ccc(NC(=O)c2ccc(Br)o2)cc1
    4%, 7%, -1.5%, -2
CCOC(=O)c1nc(C)sc1-c1ccnn1S(=O)(=O)c1ccccc1C(F)(F)F
    2%, 12%, -3.1%, -1
COc1ccc(CN(C)C(C)C(=O)Nc2ccc([N+](=O)[O-])cc2Cl)cc1OC (stereo not given)
    20%, 1%, 0.6%, 3
COCCNC(=O)c1ccc(N2CCCCC2)c(NS(=O)(=O)c2ccc(C)cc2)c1
    -24%, 1%, 4.1%, -7
Cc1ccc2oc(=O)n(CCOc3ccccc3Cl)c2c1
    -7%, 26%, -3.4%, -17
O=C(c1ccccc1)c1ccc2c(c1)OCCOCCOCCOCCO2
    1%, 19%, 6.7%, -5
Cc1ccc(S(=O)(=O)Nc2cc(C)on2)cc1
    4%, -1%, -1.6%, /
Cc1ccc(NC2CCCN(C(=O)CCc3ccncc3)C2)cc1C (stereo not given)
    2%, 11%, 3.8%, /
CNC(=O)c1ccc(S(=O)(=O)c2ccc(Cl)cc2)c(NC(C)=O)c1
    -3%, -2%, 3.7%, /
CC(=O)c1ccc(NC(=O)CC(C)S(=O)(=O)c2ccc3c(c2)CCN3C(C)=O)cc1 (stereo not given)
    -10%, 0%, -3.0%, /
COc1ccc(/C(O)=C2/C(=O)C(=O)N(CCN(C)C)C2c2ccccc2)cc1Cl (stereo not given)
    0%, 4%, -0.1%, -4
CCC(=O)N(CC)c1nc(-c2ccc(OC)cc2)cs1
    -60%, -6%, -1.1%, -3
O=C(NC1CCCC1)C(c1ccc(O)cc1)N(CC1CCCO1)C(=O)C1COc2ccccc2O1 (stereo not given)
    -5%, 0%, 2.6%, 4
COc1ccc(C=O)c2[nH]c3c(Cl)ncnc3c12
    -10%, -11%, -0.7%, /
COc1ccc([N+](=O)[O-])cc1NC(=O)C(C)Sc1ccccc1 (stereo not given)
    1%, 16%, -0.9%, -2
Cc1csc(SCC(=O)N(C)CC(=O)Nc2ccc(F)cc2)n1
    3%, /, /, -5
Cn1nc(C(=O)Nc2ccccc2N2CCOCC2)ccc1=O
    /, -6%, 3.9%, /
COC(=O)c1ccc2c(=O)n(CCCCCC(=O)NC(C)C)c(=O)[nH]c2c1
    -1%&23%, 7%, -0.8%, 12
O=c1c2c(nc3cc(-c4ccccc4)[nH]n13)CCS2
    -50%, 11%, 0.4%, 7
O=C(Cc1cccs1)NNC(=S)NCc1ccco1
    -2%, 16%, 0.4%, 6
CCOc1ccccc1N=C1SCC(C)N1C(=O)C1CCN(c2ncnc3sc(C)c(C)c23)CC1 (stereo not given)
    /, -15%, 1.4%, /
Nc1n[nH]c(N)c1N=Nc1ccc(Cl)cc1Cl
    -11%, -15%, -0.3%, 6
FC(F)(F)c1ccccc1/C=N/n1c(COc2ccccc2)n[nH]c1=S
    -8%, 8%, -1.3%, /
Cc1cccc2sc(NNC(=O)c3cc(-c4cccs4)nc4ccccc34)nc12
    19%, -28%, -3.6%, -2
COc1cc2c(cc1OC)C(C)N(C(=O)c1ccc(Br)o1)CC2 (stereo not given)
    18%, 3%, -0.3%, -3
CN(C)CCCOc1cccc(Oc2ccccc2)c1
    -14%, -11%, -1.6%, 4

Carrying on.
Below each compound: miR-21 reporter, Rango release inh, Rango-impB inh, GLA inh pH 4.5
CN(CCC#N)C(=O)COC(=O)c1c2c(nc3ccccc13)/C(=C\c1ccco1)CC2
    /, ?, ?, /
CC(C)C(NC(=O)c1ccco1)C(=O)OCC(=O)NCCc1ccccc1 (stereo not given)
    /, 27%, 0.4%, /
Cc1ccc(CNC(=O)C(=O)NCC2CCCN2S(=O)(=O)c2cc(C)ccc2C)cc1 (stereo not given)
    /, -12%, -0.7%, /
CCN1CCc2c(C#N)c(N3CCOCC3)nc(NCCO)c2C1
    -12%, -5%, ?, 6
O=C(COC(=O)c1ccc(=O)n(Cc2ccccc2)n1)Nc1ccc2c(c1)OCCO2
    3%, 1%, -1.2%, 3
COc1ccc(NC(=O)CSc2nccn2-c2cccc(OC)c2)cc1
    -9%, 2%, -3.4%, 0
CCOC(=O)c1c(S(=O)(=O)NCC(=O)NCc2cccc(C)c2)c(C)n(C)c1C
    0%&-4%, 15%, -1.3%, /
COC(=O)c1sc2ncccc2c1OCc1ccccc1Cl
    -14%, 15%, 0.1%, 2
O=C(c1ccco1)N(Cc1ccccc1)c1cccc([N+](=O)[O-])c1
    -1%, -3%, -0.8%, 0
CCCc1nc2ccccc2c(=O)n1CC(=O)c1ccc(F)cc1
    0%, -11%, 0.8%, /
C=CCN(C/C(=N\O)c1sc(C(=O)OCC)nc1C)c1cccc(Br)c1
    /, -10%, -0.8%, /
Cc1ccc(-n2c(CC#N)n[nH]c2=S)c(C)c1
    -4%, 11%, 0.4%, -15
Cc1nnsc1SCC(=O)O
    0%, ?, ?, -19
C=CCN1CCN(C(=O)CCc2ccccc2)CC1
    -3%, 10%, -2.5%, /
CCOC(=O)c1nc(S(C)(=O)=O)ncc1N1CCOCC1
    -6%, 0%, -3.4%, -8
COc1ccc2ccccc2c1C1NC(=O)NC(C)=C1[N+](=O)[O-] (stereo not given)
    7%, 1%, -2.0%, /
C=CCN(C(=O)CNC(=O)c1ccco1)C(C(=O)NC1CCCC1)c1cccs1 (stereo not given)
    -5%, 1%, -1.0%, 8
C=CC(=C)CC(NC)c1ccccc1 (stereo not given)
    -3%, -3%, -0.4%, -5
CC(=O)O[C@]1(C(C)=O)CCC2C3CCC4=C/C(=N/OCC(=O)O)CC[C@]4(C)C3CC[C@@]21C (stereo not given in full)
    -7%, -2%, -1.1%, /
COC(=O)c1ccccc1NC(=O)CN1CCC(C(=O)c2ccc3c(c2)OCCO3)CC1
    17%, -1%, 3.8%, -12
Cn1c(=O)c2c(SCC(=O)NCCc3ccccc3)nc(C3CC3)nc2n(C)c1=O
    -9%, 22%, -0.8%, 0
O=C(c1ccncc1)N1CCCC(N2CCN(c3cccc(C(F)(F)F)c3)CC2)C1 (stereo not given)
    8%, 6%, -0.8%, /
O=S1(=O)[C@H]2CC3O[C@]2(C[C@@H]3c2ccc(F)cc2)CN1Cc1ccc(Cl)cc1
    6%, -15%, ?, 0
COc1ccc(OCC(=O)N/N=C2\CCCc3ccccc32)cc1
    -4%, -1%, 1.4%, 1
O=C(NCC1CC1)C1(C(F)(F)F)CC(CCCO)CCCO1 (stereo not given)
    /, 0%, ?, /
O=C(COC(=O)c1ccc(C(F)(F)F)cc1)Nc1cccc(S(=O)(=O)N2CCCCC2)c1
    /, 28%, -0.4%, /
Cc1ccc(NC(=O)[C@@H]2CCCN2S(=O)(=O)c2ccc(Cl)cc2)cc1
    /, 7%, -0.9%, /
Cc1cc(Br)ccc1N=C1C(=O)Nc2ccccc21
    1%, 10%, -0.5%, /
CCc1ccccc1N(C)C(=O)CCc1nc(-c2ccc(C)cc2)no1
    27%, -13%, -3.0%, -12

Copied from the results shown (5 entries):
Below each compound: miR-21 reporter, Rango release inh, Rango-impB inh, GLA inh pH 4.5
COc1ccc(OCC(=O)N/N=C2\CCCc3ccccc32)cc1
    -4%, -1%, 1.4%, 1
O=C(NCC1CC1)C1(C(F)(F)F)CC(CCCO)CCCO1 (stereo not given)
    /, 0%, ?, /
O=C(COC(=O)c1ccc(C(F)(F)F)cc1)Nc1cccc(S(=O)(=O)N2CCCCC2)c1
    /, 28%, -0.4%, /
Cc1ccc(NC(=O)[C@@H]2CCCN2S(=O)(=O)c2ccc(Cl)cc2)cc1
    /, 7%, -0.9%, /
Cc1cc(Br)ccc1N=C1C(=O)Nc2ccccc21
    1%, 10%, -0.5%, /

Source: PubChem

Only part of the results is shown; count on the stated rates, not on these rows.
